# Menin MLL FP FL: menin-MLL binding inhibition, fluorescein peptide; 290,000 tested, under 10 active; FP activity change, % at 61.4 µM; Fluorescence polarization, fluorescein-MLL peptide displacement from menin; inconclusive = falling polarisation curve, or a change in total fluorescence; inactive = total fluorescence flat and polarisation flat or rising; no compound was filed as active; the % refers to the polarisation; negative = inhibition;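 also: % of control where 0% means no effect; inhibitors lower the polarisation; unlabelled MLL peptide was the positive control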
# ClpP mod: qHTS Assay for Activators of ClpP; AID 651965, 2013; Potency, µM (doses to about 57.5 µM), inactives show at the highest dose activity change, negative = active; 1.9% of 340,000 active; purified B. subtilis ClpP, FRET peptide cleavage, 20 min; active = well fitted falling curve with a large enough effect; inconclusive = small, poorly fitted or top-dose-only effect; inactive = no such curve, though single readings can be large or run the other way; also: potency is read from the fitted curve at half-maximal effect; the source files actives as falling curves though it sought activators and does not explain the sign; nearly all actives have a fitted effect of over 65% in size; many hits overshoot -100%
# Target sequence (P80244 whole entry, looked up): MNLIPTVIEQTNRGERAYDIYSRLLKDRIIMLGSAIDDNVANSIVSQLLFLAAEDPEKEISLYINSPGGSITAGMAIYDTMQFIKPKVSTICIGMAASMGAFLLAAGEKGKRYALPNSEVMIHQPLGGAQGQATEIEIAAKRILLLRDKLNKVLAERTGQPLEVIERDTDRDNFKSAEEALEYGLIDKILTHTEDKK
#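 FRET quenching reversal measured ClpP activation: 10 microg/mL B. subtilis ClpP at pH 8 with the FRET-FV decapeptide, read at 430 nm after 320 nm excitation. The 20-min minus 0-min signal was scaled between DMSO/no-enzyme wells and ADEP (5.8 microM final).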
# gsp antagonist: gsp mutant antagonism; gsp-mutant cells, cAMP HTRF, 30 min; control for the full effect not named in the record; Potency, µM (doses to about 76.9 µM), for the others: at the top dose activity change, negative = inhibition, actives largely listed as inhibitors; 0.4% of 340,000 active; active = falling curve of any shape with a large fitted effect; inconclusive = falling curve, mostly with a smaller effect; inactive = flat or rising curve; cell line not stated here;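 also: intracellular cAMP measured with PDE inhibitor Ro 20-1724 present during compound exposure; potency is read from the fitted curve at half-maximal effect; % is scaled to controls: 0 for no effect and ±100 for the full control effect; nearly all actives have a fitted effect of over 65% in size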
#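 G418-selected cells were plated in DMEM/10% FBS for 16-24 h at 37C, then treated with compounds plus the PDE inhibitor […] (300 uM solution added) for 30 min at 37C. Intracellular cAMP was measured by HTRF after 30 min lysis at room temperature.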
# TRPML1 blocker: inhibitors of human TRPML1 channel; activity change, negative = inhibition, % (no concentration beside the values); 0.02% of 390,000 active; TRPML1-inducible cells, Ca2+ dye fluorescence, FDSS; hits give low values; inhibition of EC80 agonist-evoked calcium signal; in the data active means activity change below about -50%; inconclusive means about -30% to -50%; inactive means above about -30%;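 also: stimulus is agonist 54-4 at its EC80 concentration; % is scaled to controls: 0 for no effect and ±100 for the full control effect; compound concentration not given in the record; the text of the record puts the active cut at -80%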
# Target sequence (Q9GZU1 whole entry, looked up): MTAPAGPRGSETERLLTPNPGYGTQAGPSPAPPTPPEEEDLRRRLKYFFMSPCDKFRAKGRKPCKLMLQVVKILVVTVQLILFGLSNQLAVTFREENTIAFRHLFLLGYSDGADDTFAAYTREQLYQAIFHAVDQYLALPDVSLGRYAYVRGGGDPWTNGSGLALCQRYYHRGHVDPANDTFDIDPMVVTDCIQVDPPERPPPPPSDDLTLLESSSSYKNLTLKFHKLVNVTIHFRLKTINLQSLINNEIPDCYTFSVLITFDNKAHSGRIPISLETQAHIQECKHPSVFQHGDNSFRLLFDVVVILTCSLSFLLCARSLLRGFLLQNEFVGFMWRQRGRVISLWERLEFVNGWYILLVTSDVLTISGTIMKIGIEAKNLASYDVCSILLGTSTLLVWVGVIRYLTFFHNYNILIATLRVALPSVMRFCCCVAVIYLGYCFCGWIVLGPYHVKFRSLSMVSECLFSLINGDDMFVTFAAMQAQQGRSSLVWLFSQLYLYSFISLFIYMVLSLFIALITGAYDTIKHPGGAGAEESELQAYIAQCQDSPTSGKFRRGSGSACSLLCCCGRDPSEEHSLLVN
#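 Calcium fluorescence in TRPML1-DL cells induced overnight with Tet: a 110 s read after compound pin addition, then a 110 s antagonist read after challenge with 54-4 at 4 uM final (EC80).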
# gsp agonist: gsp mutant agonism; gsp mutant cells, cAMP HTRF, 30 min; control for the full effect not named in the record; Potency, µM (highest dose often 76.9 µM), for the others: at the highest dose activation (cAMP increase), actives largely listed as activators; 0.13% of 340,000 active; AID 624287; active = well fitted activation curve with a large enough effect; inconclusive = small, poorly fitted or top-dose-only effect, or another doubt; inactive = no such curve, though single readings can be large or run the other way; cell line not stated here;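 also: phosphodiesterase inhibitor Ro 20-1724 added with compounds to block cAMP breakdown; potency is read from the fitted curve at half-maximal effect; nearly all actives have a fitted effect of over 60% in size; about a fifth of the inactives were tested at one dose only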
#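 Cells stably selected in G418 were plated at 2000/well, grown 16-24 hr, then given compounds in DMSO with the PDE inhibitor […] (300 uM solution added) for 30 min at 37C; cAMP was read by HTRF.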
# TRPML1 agonist: agonists of human TRPML1 channel. TRPML1-expressing cells, Ca2+ dye fluorescence, FDSS; host cell line not named in the record; reference of the full effect not given here. 0.12% of 410,000 active. Q9GZU1. activation, % (no concentration beside the values); in the data active = activation above about 50%; inconclusive = about 30% to 50%; inactive = below about 30%; also: 0% is about no effect; the text of the record puts the active cut at 80%
#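 Kinetic FDSS Ca2+ read in Tet-induced TRPML1-DL cells (ABD Ca8 dye plus quencher, 45-90 min RT loading): baseline, then compound, then 110 s agonist window; EC80 agonist 54-4 at 4uM final added afterwards for a 110 s antagonist window.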
# * = called active by the depositor; ? = inconclusive; . = no result given; & = joins results of further samples; [ ] = another dose, or the depositor's remark.
molecule	TRPML1 agonist	Menin MLL FP FL	gsp antagonist	ClpP mod	gsp agonist	TRPML1 blocker
NC(=O)CC[C@@H]1NC(=O)[C@@H]2CCCN2C(=O)c2cc([N+](=O)[O-])cc(I)c2NCCCC[C@@H](C(=O)NC(CC(=O)O)C(N)=O)NC1=O (some centres not stated)	-0.8	-0.9	8%	1.8%	.	1
O=C(CN1CCCN(Cc2ccc(F)cc2)S1(=O)=O)NC1CCCC1	0.6	.	7%	-0.8%	6%	-3
CCOc1ccc(NC(=S)Nc2ccccc2C2(C)CC2)cc1	2.3	0.3	4%	.	-2%[15.4 µM]	-1
CCOc1ccc(-n2c(SCC(=O)NCc3ccco3)nc3ccccc3c2=O)cc1	1.4	1.0	10%	.	-11%	-16
CC1=NN(c2nc3ccccc3[nH]2)C(=O)C1Cc1ccccc1 (configuration not stated)	1.3	3.2	7%	.	-21%[15.4 µM]	-15
O=C(Nn1c(Cc2ccccc2)nc2ccccc2c1=O)c1c(O)c2cccc3c2n(c1=O)CCC3	-0.3	-4.3	1%	-5.2%	8%	-12
COc1ccc(Cn2nnnc2C(c2cc3cc(C)ccc3[nH]c2=O)N2CCN(C)CC2)cc1 (configuration not stated)	-0.4	1.8	7%	-1.0%	13%[15.4 µM]	-13
CCn1nc(NC(=O)C2CCCO2)c2cc3cccc(C)c3nc21 (configuration not stated)	0.5	1.9	-16%	.	-8%[15.4 µM]	6
O=C1C(c2[nH]c3ccc(S(=O)(=O)O)cc3c2O)=Nc2ccc(S(=O)(=O)O)cc21	-0.6	-16	.	4.5%	.	.
Cc1cnc(NC(=O)CC(C)c2ccccc2)s1 (configuration not stated)	-0.3	3.0	16%	.	-9%	1
Cc1cc(C)c2oc(C(=O)NCCc3ccc(S(N)(=O)=O)cc3)cc(=O)c2c1	0.1&2.5	6.3	10%	-4.4%	9%[15.4 µM]	9&6
O=S(=O)(Nc1cccc(-c2ccc(N3CCOCC3)nn2)c1)c1ccc(Cl)c(Cl)c1	-0.9	.	?	-3.2%	30%	12
COc1ccccc1NC(=O)C1CC(C)OC1=O (configuration not stated)	1.0	.	4%	.	18%	12
CCN(CC)C(=O)[C@H]1CC(CC(=O)NC/C=C(\C)CCC=C(C)C)C(=O)N2CCc3c([nH]c4ccccc34)[C@]12C (some centres not stated)	-0.4	.	-13%	0.6%	.	0
CCOc1ccccc1C=NN1CCCCCC1	-0.6	.	5%	1.4%	1%[15.4 µM]	11
O=C(CSc1nc(-c2ccco2)nc2cc(=O)[nH]n12)Nc1ccccc1F	-0.2	.	.	-1.2%	.	12
O=C(NCCOc1cccnc1)C1CCC(=O)N(Cc2ccccc2F)C1 (configuration not stated)	-0.5	7.3	-10%	-0.4%	12%	10
COc1ccc(C(=O)N2CCCCC2CCN2CCOCC2)cc1 (configuration not stated)	0.6	.	.	-0.5%	.	6
CCOc1ccc(NC(=O)N(Cc2ccc(C)cc2)Cc2ccccn2)cc1	2.1	1.2	?	-0.9%	-12%	18
Cc1[nH]c2ccccc2c1C(=O)COC(=O)C1CCC1	2.9	0.0	2%	-1.3%	-8%	7
CC(C)(C)NC(=O)COC(=O)c1cc(Cl)ccc1[N+](=O)[O-]	0.6	0.6	3%	.	-7%	-4
Nc1c(C(=O)C2CC2)sc2nc(-c3ccccc3)cc(C(F)(F)F)c12	?	?	5%	-2.7%	19%	-9
O=C(CO/N=C/c1ccccc1Cl)N1CCCc2ccccc21	2.6	2.9	-7%	1.7%	0%	9
O=C(COC(=O)c1ccc(S(=O)(=O)N2CCOCC2)cc1)NCc1ccccc1	0.1	.	-12%	0.5%	-1%	-13
COc1cccc(C(=O)COC(=O)CCC(=O)NC2CCCCC2)c1	-0.3	-1.2	3%	-0.5%	-10%	0
O=C(c1cccs1)c1cn(CC(=O)N2CCc3ccccc3C2)c2ccccc12	0.1	-2.1	-3%	-1.4%	-32%[15.4 µM]	-14
CCOC(=O)c1cc(-c2ccccc2)sc1NC(=O)CCN1C(=O)c2ccccc2C1=O	0.6	6.9	4%	-3.0%	15%	12
COCCn1c(SC(C)C(=O)NCC2CCCO2)nc2sc3c(c2c1=O)CCC3 (configuration not stated)	-0.7	.	-1%	-5.0%	8%[15.4 µM]	-6
COC(=O)CSc1nc(N2CCOCC2)c2c(c1C#N)CC(C)(C)OC2	1.1	1.3	-11%	.	4%	25
Cc1ccsc1/C=C1\Oc2cc(O)ccc2C1=O	20	.	.	-0.7%	?	-8
N=C1C(c2nc3ccccc3s2)=C(O)CN1C1CCC(O)CC1 (configuration not stated)	-0.2	1.2	-5%	.	-2%[15.4 µM]	2
Cc1ccc(C)n1-c1ccc(C(=O)NN)s1	-0.5	-0.3	-3%	.	0%[15.4 µM]	2
Cc1cccc(C)c1NC(=O)CSc1ncnc2nc[nH]c12	0.2	0.0	2%	-0.8%	1%	7
CCCCN(c1ccccc1)S(=O)(=O)c1cccc(C(=O)O)c1	0.1	13	-14%	.	-2%[15.4 µM]	34
CN(C)c1ccc(CNC(=O)c2ccc3c(c2)N(C)C(=O)C2CCCCN32)cc1 (configuration not stated)	1.3	.	.	-3.4%	.	2
O=C(Nc1ccc(F)cc1F)c1csc(-c2ccncc2)n1	0.8	3.7	-9%	.	-1%[15.4 µM]	-3
COc1ccc(N(C(=O)Cn2nnc(-c3ccc(F)cc3)n2)C(C)C(=O)NC2CCCC2)cc1 (configuration not stated)	2.3	-4.8	-15%	.	2%	-8
CCCc1cc(=O)[nH]c(SCC(=O)Nc2sccc2C#N)n1	1.5	.	-1%	-3.1%	-1%	8
COc1ccc(/C=N/NC(=O)c2cc[n+]([O-])cc2)cc1OC	0.4	0.0	-2%	.	-8%[15.4 µM]	-22
Cc1cccc(NC(=O)CCC(=O)Nc2nnc(C(F)(F)F)s2)c1	-0.8	2.3	-21%	.	11%	-5
Cc1ccc(-c2cc(C(F)F)nc(N3CCC(C)CC3)n2)cc1	0.0	3.0	1%	25µM*	12%	-2
CCCCCCN(C(=O)CCCCCN1C(=O)NC(c2ccc([N+](=O)[O-])cc2)C(C(=O)OCc2ccccc2)=C1C)C(C(=O)NCCCC)C1CCCCC1 (configuration not stated)	-0.8	.	0%	3.8%	.	33
COCCN(C(=O)c1ccc(C#N)cc1)c1c(N)n(Cc2ccccc2)c(=O)[nH]c1=O	-0.9	.	6%	-0.4%	-1%	-3
Cc1cc(C)n(C(=O)CSc2ccc(Cl)cc2)n1	-0.3	1.8	-3%	-1.0%	3%	-12
O=C(COC(=O)c1ccc(Cl)nc1)Nc1ccc(N2CCOCC2)cc1	2.2	.	-4%	.	-2%[15.4 µM]	25

# Reformatted: results already given
# Results follow in this order: TRPML1 agonist	Menin MLL FP FL	gsp antagonist	ClpP mod	gsp agonist	TRPML1 blocker
- COCCN(C(=O)c1ccc(C#N)cc1)c1c(N)n(Cc2ccccc2)c(=O)[nH]c1=O
    -0.9	.	6%	-0.4%	-1%	-3
- Cc1cccc(NC(=O)CCC(=O)Nc2nnc(C(F)(F)F)s2)c1
    -0.8	2.3	-21%	.	11%	-5

# Following part.
molecule	TRPML1 agonist	Menin MLL FP FL	gsp antagonist	ClpP mod	gsp agonist	TRPML1 blocker
COc1cccc(/C=C(/C#N)c2ccc(F)cc2)c1OCc1cccc(C(=O)O)c1	-0.1	1.8	?	-2.5%	7%	7
CC(OC(=O)c1ccncc1)C(=O)Nc1cccc([N+](=O)[O-])c1 (configuration not stated)	-1.0	-5.4	10%	1.0%	-4%[15.4 µM]	-14
COc1cc(C(CC(=O)Nc2ccc(C)cn2)N2Cc3ccccc3C2=O)cc(OC)c1OC (configuration not stated)	-1.3	2.0	12%	0.7%	-2%[15.4 µM]	4
Cc1oc(-c2cc3c(cc2Cl)OCO3)nc1CN1CCCC(C(=O)N2CCOCC2)C1 (configuration not stated)	0.3	1.0	2%	.	-17%	38
CC12CCC3c4ccc(O)cc4CCC3C1CC(=NO)C2O (configuration not stated)	1.0	.	-1%	-2.1%	0%	-14
CN(C(=O)CSc1nnc(-c2ccco2)n1N)C1CCCCC1	-0.7	5.0	20%	.	0%	13
O=C(O)c1cnc(-c2ccccc2)nc1Oc1ccc(Cl)cc1	-0.4	2.8	?	.	11%[15.4 µM]	-5
Cc1cccc(CCNC(=O)c2cccc3c2C(=O)N(C2CCCCC2)C3)c1	0.2	3.5	?	1.5%	?	15
Cc1ccccc1C(=O)NNC(=S)NC(=O)c1ccc(Cl)cc1Cl	0.1	-0.2	-8%	-0.3%	5%	-2
COc1ccc(-c2csc(NC(=O)CN3C(=O)NC4(CCCC4)C3=O)n2)cc1OC	0.5	.	-1%	-2.0%	-14%	-8
Cc1cnc(CN(C)Cc2c(C(=O)N3CCc4ccccc4C3)nc3ccc(Cl)cn23)[nH]1	1.2	-1.7	9%	.	21%[15.4 µM]	-9
O=C(Nc1ccccc1)c1cccc(N2C(=O)C3C4C=CC(C5CC45)C3C2=O)c1 (configuration not stated)	0.1	.	-13%	.	8%	3
C[C@@H]1CN([C@H](C)CO)C(=O)Cc2cc(NC(=O)CCC(F)(F)F)ccc2O[C@@H]1CN(C)C(=O)Nc1ccccc1	0.5	.	9%	-0.5%	.	-13
O=C(NNC(=O)c1ccccc1F)c1ccc2[nH]c(=O)c(=O)[nH]c2c1	-0.4	0.8	3%	-27%	?	4
CCC1CCCCN1C(=O)c1cc2c(=O)n3cccc(C)c3nc2s1 (configuration not stated)	-0.3	2.0	10%	.	-25%	2
Cc1ccc2nc(N(CCCN(C)C)C(=O)c3cc(-c4cccs4)nc4ccccc34)sc2c1	0.6	-5.4	7%	3.6%	?	4
COc1ccc(NC(=O)C(=O)NCCc2csc3nc(-c4ccccc4C)nn23)cc1	-0.8	.	.	-0.5%	.	-14
COc1cc(OC)cc(-n2nnnc2SCC(=O)NC2CCCC2)c1	-0.6	-2.3	3%	0.8%	-5%	6
CC1CCC(NC(=O)c2ccc3c(c2)OCO3)CC1 (configuration not stated)	-0.6	.	6%	-3.4%	29%	10
COCCNC(=O)c1cn(C)c2ccccc2c1=O	-0.6	1.1	0%	0.1%	4%	-2
COc1cc(OC)c(C2C(C#N)=C(C)NC(C)=C2C#N)c(C(=O)O)c1	0.6	4.9	5%	.	26%	-18
Cc1nn(CCCC(=O)Nc2cccnc2Cl)c(C)c1[N+](=O)[O-]	-0.3	-6.0	0%	.	-7%	-2
COc1ccc(NC(=O)c2cc(-c3cccnc3)nc3ccc(C)cc23)cc1OC	-0.8	5.9	6%	7.5%	-28%	5
Cc1cccn2c(/C=N/OCc3cccc(F)c3)c(-c3ccc(Cl)cc3)nc12	1.7	-0.3	-5%	22µM*	5%	57

# Assay outcomes deposited in PubChem BioAssay by National Center for Advancing Translational Sciences (NCATS).
